# Screens deposited in PubChem by National Center for Advancing Translational Sciences (NCATS).
# VDR inhibitor: vitamin D3 receptor (human) inhibition; AID 504847; 0.93% of 400,000 active; VDR-SRC2-3 peptide fluorescence polarization, 2 h; P11473; Potency, µM, without a hit: max response, negative = inhibition, usual class: inhibitors; active = well fitted inhibition curve with a large enough effect; inconclusive = small, poorly fitted or top-dose-only effect, or another doubt; inactive = no such curve, though single readings can be large or run the other way; note: series mostly up to about 120 µM
# Target sequence (P11473 whole entry, looked up): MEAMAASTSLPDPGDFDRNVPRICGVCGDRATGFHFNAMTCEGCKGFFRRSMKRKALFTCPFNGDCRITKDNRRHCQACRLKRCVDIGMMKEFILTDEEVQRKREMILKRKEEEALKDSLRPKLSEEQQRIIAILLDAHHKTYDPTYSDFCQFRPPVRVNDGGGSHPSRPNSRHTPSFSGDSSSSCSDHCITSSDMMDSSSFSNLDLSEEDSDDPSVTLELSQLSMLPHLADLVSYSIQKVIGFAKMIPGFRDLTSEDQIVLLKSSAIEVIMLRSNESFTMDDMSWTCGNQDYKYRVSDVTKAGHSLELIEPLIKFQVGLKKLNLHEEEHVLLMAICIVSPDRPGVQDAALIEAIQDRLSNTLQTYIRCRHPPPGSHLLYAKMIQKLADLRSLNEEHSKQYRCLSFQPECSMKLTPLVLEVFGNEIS
#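 Fluorescence polarization assay measuring small-molecule disruption of VDR binding to the coregulator peptide SRC2-3. Compounds were pin-transferred (23 nl) into the reagent mix and incubated 2 h at room temperature before reading.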
# * = called active by the depositor; ? = inconclusive; & = joins results of further samples; [ ] = another dose, or the depositor's remark. % is set by controls: 0 for no effect and ±100 for the full control effect; potency is the fitted concentration of half-maximal effect.
SMILES,VDR inhibitor
COC(=O)c1cc(NS(=O)(=O)c2ccc3c(c2)c(=O)n(C)c(=O)n3C)cc(C(=O)OC)c1,-9%
CC(C)(CO)NC(=O)C12CC3CC(CC(Br)(C3)C1)C2,8%
C=CC(C)N1C(=O)S/C(=C\c2ccc(N3CCOCC3)cc2C)C1=O (stereo not drawn),-14%
Cc1cc(NC(=O)CSc2nnc(-c3ccco3)n2Cc2ccco2)no1,14%
Cc1ccc(OC(C)C(=O)OCC(=O)Nc2sccc2C(N)=O)cc1 (stereo not drawn),31%[activator]
CCOCCCN(C(=O)Cn1nnc(-c2ccc(OC)c(OC)c2)n1)C(CC)C(=O)NC1CCCC1 (stereo not drawn),1%
CSc1ccc(CCNC(=O)CCn2c(=O)c3cccn3c3ccc(F)cc32)cc1,16%
CN(C(=O)COC(=O)c1ccc([N+](=O)[O-])cc1Cl)C1CCCCC1,-10%
Cn1cc(CN2CCCC(C(=O)c3cc(F)ccc3F)C2)c2ccccc21 (stereo not drawn),-3%
CCCN(C(=O)c1cccc(S(=O)(=O)N2CCN(C)CC2)c1)c1c(N)n(Cc2ccccc2)c(=O)[nH]c1=O,-21%
Cc1c2oc3c(C)ccc(C(=O)NC4C(=O)NC(C(C)C)C(=O)N5CCCC5C(=O)N(C)CC(=O)N(C)C(C(C)C)C(=O)OC4C)c3nc-2c(C(=O)NC2C(=O)NC(C(C)C)C(=O)N3CCCC3C(=O)N(C)CC(=O)N(C)C(C(C)C)C(=O)OC2C)c(N)c1=O (stereo not drawn),-16%
Cc1c(CCOC(=O)c2cc([N+](=O)[O-])ccc2Cl)sc[n+]1CCCCS(=O)(=O)[O-],-3%
CCc1ccccc1SCc1noc(C(=O)NCC2CCCO2)c1C(=O)O (stereo not drawn),-24%
COCCCNC(=O)C1CCN(Cc2cc3ccccc3n2Cc2cccc(Cl)c2)CC1,-3%
Cn1c(=O)oc2cc(S(=O)(=O)NCCCN3CCCC3=O)ccc21,-4%
O=C(Nc1nn[nH]n1)C12CC3CC(CC(C3)C1)C2,5%
CCOc1ccc(CNC(=O)CCCC(=O)n2nc(C)c3ccccc32)cc1,-13%
CC1(C)N=C(N)N=C(N)N1c1cccc(C(=O)O)c1,-5%
CCOC(=O)CCc1c(C)c2ccc(OCc3ccc([N+](=O)[O-])cc3)cc2oc1=O,13%
CC1CCN(c2nc(-c3ccc(Br)cc3)nc3ccccc23)CC1,13%
COc1ccc(Cl)cc1C=CC=NNC(=O)c1ccncc1,-17%
COCCCNC(=S)Nc1cc(C)c(C)cc1C,-5%
CCOC(=O)c1ccc(NC(=O)c2cc(=O)[nH]c3ccccc23)cc1,3%
CCN(C(=O)COC(=O)C1CCN(S(=O)(=O)c2cccs2)CC1)c1ccccc1,-4%
OCCC1CN(Cc2cccnc2)CCN1CCc1ccccc1 (stereo not drawn),-1%

# Overlap with the part before: six entries, then new ones.
SMILES,VDR inhibitor
CC1CCN(c2nc(-c3ccc(Br)cc3)nc3ccccc23)CC1,13%
COc1ccc(Cl)cc1C=CC=NNC(=O)c1ccncc1,-17%
COCCCNC(=S)Nc1cc(C)c(C)cc1C,-5%
CCOC(=O)c1ccc(NC(=O)c2cc(=O)[nH]c3ccccc23)cc1,3%
CCN(C(=O)COC(=O)C1CCN(S(=O)(=O)c2cccs2)CC1)c1ccccc1,-4%
OCCC1CN(Cc2cccnc2)CCN1CCc1ccccc1 (stereo not drawn),-1%
CCOC(=O)Cn1nc(-c2ccc(Cl)cc2)cc1N,-11%
CCOc1ccccc1N1CN(Cc2ccccc2)CNC1=S,5%
COc1ccc(CCNC(=O)C2CCN(S(=O)(=O)c3ccc(-n4cnnn4)cc3)CC2)cc1OC,11%
CNS(=O)(=O)c1cccc(C(=O)OCc2csc(-c3ccccc3)n2)c1,-20%
O=C(CCOc1cccc(Br)c1)NNC(=O)COc1ccc(F)cc1,-15%
CCCCNC(NCCCC)=C(S(=O)(=O)CC)S(=O)(=O)CC,3%
CCOc1ccc(CNC(=O)C2Cc3cc(S(=O)(=O)N4CCCC4)ccc3N2C(C)=O)cc1 (stereo not drawn),-10%
COc1ccc(/C(C)=N/N=C(N)N)c(OC)c1,1%
CC(C)c1nc(N2CCN(C(=O)c3ccco3)CC2)c2c3c(sc2n1)CCCC3,-18%
CCOc1ccc(CCNC(=O)CSc2nn(-c3ccc(C)c(Cl)c3)c(=S)s2)cc1OCC,-17%
Cc1ccccc1NC(=O)Cc1nc(COC(=O)C(NC(=O)c2ccccc2C)C(C)C)cs1 (stereo not drawn),-1%
Cc1cc2cc(C=C(C#N)C#N)c(Cl)nc2cc1C,50µM*
COc1cc2c(cc1OC)C1c3ccc(OC)c(OC)c3OCC1(O)C2 (stereo not drawn),6%
CC12CCC(=O)N1c1ccccc1C(=O)N2c1ccccc1 (stereo not drawn),14%
Clc1cc2cccnc2c2ccccc12,-11%
CC1C=CCC2C(=O)N(c3cccc(C(=O)NCCc4ccccc4)c3)C(=O)C12 (stereo not drawn),20%
Cc1ccc(C(=O)C(C)OC(=O)Cn2c(C)csc2=O)cc1 (stereo not drawn),0%
Cc1cc(/C=C2/C(=N)N3C(c4ccccc4)=CSC3=NC2=O)c(C)n1-c1ccc(Cl)cc1,8%
N#CN=C1SCCS1,-30%
Cc1ccccc1Cn1ccn(-c2ccc(F)c(F)c2)c(=O)c1=O,24%
Cc1oc(-c2ccc3c(c2)OCCO3)cc1C(=O)O,-11%
O=C1c2cccc3c([N+](=O)[O-])ccc(c23)C(=O)N1CC1CCCO1 (stereo not drawn),17%
CC(C)(C)c1cc(Cl)ccc1OCCOCCN1CCCC1,-2%
CCC1(CC)C(=O)C2=C3C1[C@H](C(=O)OC)C=C(C(=O)OC)C[C@H]3n1c(=O)n(C)c(=O)n1[C@H]2C (stereo partly drawn),-5%&-13%
CCCCN(C(=O)c1ccc(N(C)S(=O)(=O)c2ccc(C)cc2)cc1)c1c(N)n(CC(C)C)c(=O)[nH]c1=O,1%

# Three of the compounds above, with tabs:
structure	VDR inhibitor
Cc1ccc(C(=O)C(C)OC(=O)Cn2c(C)csc2=O)cc1 (stereo not drawn)	0%
Cc1cc(/C=C2/C(=N)N3C(c4ccccc4)=CSC3=NC2=O)c(C)n1-c1ccc(Cl)cc1	8%
N#CN=C1SCCS1	-30%

# Next part:
SMILES,VDR inhibitor
N#Cc1c(-c2ccccc2)cc(-c2ccc3c(c2)OCO3)[nH]c1=O,-18%
COC(=O)c1ccc(CNC(=O)c2ccc(OCC(=O)N3CCOCC3)c(OC)c2)cc1,6%
CC(=O)c1cccc(OC(=O)c2ccccc2)c1,-7%
CCOc1ccc(CCNC(=O)c2cc3cc4ccc(OC)cc4nc3s2)cc1OCC,-13%
O=C(CCCc1nc2ccccc2s1)N1CCN(S(=O)(=O)c2cccs2)CC1,-19%
O=C(CSc1nc(C2CCCCC2)nc2ccccc12)NCc1ccco1,7%
CCCCOc1ccc(N2C(=O)CC(NCc3ccncc3)C2=O)cc1 (stereo not drawn),0%
COCC(C)NC(=O)c1cc(-c2cccc(OC)c2)on1 (stereo not drawn),?
CCC1(c2ccccc2)NC(=O)N(CC(=O)N(C)Cc2ccccc2)C1=O (stereo not drawn),5%
Cn1c(=O)n(C)c2cc(NS(=O)(=O)c3ccc(C(C)(C)C)cc3)ccc21,19%
COc1ccc(NC2CCN(C3CC(=O)N(c4ccc(F)c(Cl)c4)C3=O)CC2)cc1 (stereo not drawn),17%
O=C1CC(=O)CC(c2ccccc2)C1,?
COc1cc(C2C(=O)N(C3CCCC3)CC(=O)N2Cc2ccco2)ccc1OC(C)C (stereo not drawn),-8%
CCN(CC)c1ccc2cc(-c3nnc(-c4cccc(Cl)c4)o3)c(=O)oc2c1,1%
Cc1ccc2c(c1)C1C3CCC(C3)C1S(=O)N2 (stereo not drawn),?
O=C1NC2(CCCCCCC2)C(=O)N1Cc1ccc(F)cc1,-12%
COc1ccc(CCNC(=O)CCCCCn2c(SCC(N)=O)nc3cc4c(cc3c2=O)OCO4)cc1OC,?
O=C(NCc1ccc(F)cc1)C1CC(=O)N(C2CCCCC2)C1 (stereo not drawn),3%
Cc1ccc(NS(=O)(=O)c2ccc(C3CCCCC3)cc2)cc1,4%
CCOc1ccc(OCC)c(NC(=O)c2ccc(-c3ccccc3)s2)c1,11%
O=C(COC(=O)c1ccc(O)cc1O)Nc1cc(-c2ccccc2)nn1-c1ccccc1,1%
NC(=O)c1ccccc1NC(=O)COc1ccc2c(c1)OCO2,13%
CCOc1cc2[nH]c(=S)n(CCC(=O)NCc3ccco3)c(=O)c2cc1OCC,-12%
CCc1nnc(NC(=O)c2ccc(Cl)nc2)s1,-6%
CCN(CC)S(=O)(=O)c1cc(C(=O)Oc2ccccc2OC)ccc1OC,-13%

# (more compounds)
SMILES,VDR inhibitor
COc1ccc(C2=NCCn3cccc32)c(OC)c1,-18%
O=C(CCNS(=O)(=O)c1cccc2nonc12)Nc1ccc(Cl)cc1,13%
CCOC(=O)c1ccc(NC(=O)CSc2n[nH]c(-c3ccncc3)n2)cc1,16%
COc1ccc(-c2c(C3C4C=CCCC4(C)C(=O)N3Cc3ccccc3)ccc3ccccc23)cc1OC (stereo not drawn),-25%
COC(=O)c1ccccc1NC(=O)CSc1nncn1C,8%
CC(C)C(=O)NC(=S)Nc1ccccc1C(=O)Nc1ccccc1,-4%
O=C(c1ccc(Cl)c(Cl)c1)N1CCC(=O)N(C(COCc2cccc(C(F)(F)F)c2)Cc2ccccc2)CC1 (stereo not drawn),?
COc1ccc(NC(=O)C2C(=O)NC3(C)CC2c2ccccc2O3)cc1 (stereo not drawn),18%
CSc1ccccc1C(=O)C1CCCN(C(=O)CCc2cccnc2)C1 (stereo not drawn),-13%
CC1CCCN(C(C(=O)NC2CCCCC2)c2cc3c(cc2[N+](=O)[O-])OCO3)C1 (stereo not drawn),9%
CC1CCN(c2nncc3ccccc23)CC1,1%
O=c1cc(-c2ccccc2)c2cc(Cl)ccc2[nH]1,10%
Cc1ccc(CNC(=O)c2ccc(Cn3c(SCc4ccccc4F)nc4cccnc43)cc2)cc1,7%
C=CC[C@H](CC(=O)NCCO)C(=O)N[C@H](COC(=O)[C@@H](CC=C)CC(=O)OC(C)(C)C)Cc1ccccc1,-14%
CC(NC(=O)c1ccc(C23CC4CC(CC(C4)C2)C3)cc1)C(=O)O (stereo not drawn),-8%
O=[N+]([O-])c1ccc(SCCc2ccccn2)cc1,-11%
O=[N+]([O-])c1ncccc1OCc1ccc(Cl)c(Cl)c1,1%
CC(=O)c1ccc([N+](=O)[O-])c(CS(=O)(=O)c2ccccc2)c1,5%
Cc1cc(N/C=C/C(=O)c2ccccc2)ccc1Br,6%
O=C1C(Cc2ccccc2)Nc2ncnc(N3CCc4ccccc4C3)c2N1Cc1ccc(Cl)cc1 (stereo not drawn),-18%
Cc1c(C(=O)OCC(=O)N2C(C)CCCC2C)oc2ccccc12 (stereo not drawn),7%
Cc1ccc2nc(Nc3ccc(Cl)cc3)c3nncn3c2c1,7%
COCCNC(=O)CCCn1c(=O)c2cc(OC)c(OC)cc2n(CC(=O)Nc2ccc(F)cc2)c1=O,22%&-10%
O=[N+]([O-])c1cccc(-c2ccc(CN3CCN(c4ccccc4)CC3)o2)c1,-9%
COC(=O)c1cc2sccc2n1Cc1nc(-c2ccc(C)cc2)oc1C,-4%

# The closing four entries of the part above lead into the next:
SMILES,VDR inhibitor
Cc1ccc2nc(Nc3ccc(Cl)cc3)c3nncn3c2c1,7%
COCCNC(=O)CCCn1c(=O)c2cc(OC)c(OC)cc2n(CC(=O)Nc2ccc(F)cc2)c1=O,22%&-10%
O=[N+]([O-])c1cccc(-c2ccc(CN3CCN(c4ccccc4)CC3)o2)c1,-9%
COC(=O)c1cc2sccc2n1Cc1nc(-c2ccc(C)cc2)oc1C,-4%
Cc1ccc(CC(NC(=O)c2ccccc2)C(=O)NC(CC(C)C)C(=O)O)cc1 (stereo not drawn),11%
O=c1c(-c2cccs2)nc2cncnc2n1Cc1ccc(F)cc1,-18%
CCN1CC(c2ccccc2)C(c2ccc(Cl)cc2)=N1 (stereo not drawn),-2%
COc1cc(NC(=O)COc2ccccc2)ccc1NC(=O)c1ccco1,-5%
Cc1cc(C)n(C(C)CC(=O)NCc2ccc(Cl)cc2)n1 (stereo not drawn),2%
CC1CCN(C(=O)Cn2cc(SCC(=O)NCc3ccc(F)cc3)c3ccccc32)CC1,-2%
COc1ccc(C)cc1NC(=O)C(OC(=O)C1=NNC(=O)CC1)c1ccccc1 (stereo not drawn),-23%
Cc1cc(C)cc(C(N)=Nc2cccc(C#N)c2)c1,-1%
Cc1ccc(CNC(=O)C2CC(c3cccc([N+](=O)[O-])c3)=NO2)o1 (stereo not drawn),7%
Cc1ccnn1Cc1cc(C(=O)O)c2ccccc2n1,0%
N#Cc1ccc(NC(=O)Cn2cnc(S(=O)(=O)N3CCOCC3)c2)cc1,-11%
Cc1ccc(NC(=O)C2CCCN2C(=O)Oc2ccccc2)c(C)c1 (stereo not drawn),-7%
O=C(CCC(=O)OCC(F)(F)C(F)F)NCc1ccccc1,-11%
CC(=O)c1sc(NC(=O)C=C(C)C)nc1C,17%
CN(CC(=O)Nc1cccnc1)S(=O)(=O)c1ccccc1,9%
O=C(N/N=C/c1cc([N+](=O)[O-])ccc1O)c1ccncc1,-22%
Cc1ccc(N(Cc2ccc([N+](=O)[O-])cc2)C(=O)c2ccco2)cc1C,-3%
CCn1nc(NC(=O)COC)c2cc3cc(C)ccc3nc21,-3%
O=C(Nc1ccc(Br)cn1)c1ccc(Br)s1,1%
Cn1c(=O)c2c(SCC(=O)NC3CCCC3)nc(CC(C)(C)C)nc2n(C)c1=O,19%

# The list is partial, so the mix of outcomes need not match the whole.
